# Source: PubChem (National Center for Advancing Translational Sciences (NCATS))
# gsp antagonist: antagonists of gsp mutant (McCune-Albright syndrome). gsp-mutant cells, cAMP HTRF, 30 min; control for the full effect not named in the record. Potency, µM (highest dose often 76.9 µM), without a hit: at the top dose activity change, negative = inhibition, most hits filed as inhibitors. hit rate 0.4% among 340,000; active = falling curve of any shape with a large fitted effect; inconclusive = falling curve, mostly with a smaller effect; inactive = flat or rising curve; cell line not stated here;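 note: intracellular cAMP measured with PDE inhibitor Ro 20-1724 present during compound exposure; potency is the fitted concentration of half-maximal effect; % is set by controls: 0 for no effect and ±100 for the full control effect; nearly all actives have a fitted effect of over 65% in size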
#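 Measurement of cellular cAMP by homogeneous time-resolved fluorescence following a 30 min compound exposure at 37C. The PDE inhibitor […] was present throughout; the assay buffer was DPBS with 0.05% BSA and 0.005% Tween 20.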
# ClpP mod: qHTS Assay for Activators of ClpP; purified B. subtilis ClpP, FRET peptide cleavage, 20 min; Potency, µM (highest dose often 57.5 µM), without a hit: at the highest dose activity change, negative = active; hit rate 1.9% among 340,000; active = well fitted falling curve with a large enough effect; inconclusive = small, poorly fitted or top-dose-only effect; inactive = no such curve, though single readings can be large or run the other way; note: potency is the fitted concentration of half-maximal effect; the source files actives as falling curves though it sought activators and does not explain the sign; nearly all actives have a fitted effect of over 65% in size; many hits overshoot -100%
# Target sequence (P80244 whole entry, looked up): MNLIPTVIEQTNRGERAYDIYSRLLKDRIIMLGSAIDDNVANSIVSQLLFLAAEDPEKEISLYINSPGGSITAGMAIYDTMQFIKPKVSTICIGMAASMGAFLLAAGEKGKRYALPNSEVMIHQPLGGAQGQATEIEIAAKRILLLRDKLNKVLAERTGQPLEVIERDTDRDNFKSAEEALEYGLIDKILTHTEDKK
#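 Purified B. subtilis ClpP, 10 microg/mL final in Tris/HCl pH8 with KCl, BSA, glycerol and Tween-20, cleaved an Abz/nitrotyrosine-quenched decapeptide. Fluorescence (ex 320, em 430) was read at 0 and 20 min at room temperature. Delta was normalized to 5.8 microM ADEP and DMSO/no-enzyme controls.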
# gsp ag: agonists of gsp mutant (McCune-Albright syndrome). AID 624287. hit rate 0.13% among 340,000. gsp mutant cells, cAMP HTRF, 30 min; control for the full effect not named in the record. Potency, µM (titrated, usually from 76.9 µM), without a hit: top-dose activation (cAMP increase), usual class: activators; active = well fitted activation curve with a large enough effect; inconclusive = small, poorly fitted or top-dose-only effect, or another doubt; inactive = no such curve, though single readings can be large or run the other way; cell line not stated here;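 note: phosphodiesterase inhibitor Ro 20-1724 added with compounds to block cAMP breakdown; potency is the fitted concentration of half-maximal effect; nearly all actives have a fitted effect of over 60% in size; about a fifth of the inactives were tested at one dose only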
#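 Cells stably selected in G418 were plated at 2000/well, grown 16-24 hr, then given compounds in DMSO with the PDE inhibitor […] (300 uM solution added) for 30 min at 37C; cAMP was read by HTRF.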
# TRPV1 PAM: potentiators of human vanilloid receptor 1 (TRPV1) | Q8NER1 | hit rate 0.02% among 320,000 | AID 540277 | TRPV1-expressing cells, Fluo-8 calcium influx, capsaicin EC20 potentiation; host cell line not named in the record; control for the full effect not named in the record | potentiation, % at 8.33 µM; active means potentiation above 80%; inconclusive means 30% to 80%; inactive means below 30%; note: 0% is about no effect
# Target sequence (Q8NER1 whole entry, looked up): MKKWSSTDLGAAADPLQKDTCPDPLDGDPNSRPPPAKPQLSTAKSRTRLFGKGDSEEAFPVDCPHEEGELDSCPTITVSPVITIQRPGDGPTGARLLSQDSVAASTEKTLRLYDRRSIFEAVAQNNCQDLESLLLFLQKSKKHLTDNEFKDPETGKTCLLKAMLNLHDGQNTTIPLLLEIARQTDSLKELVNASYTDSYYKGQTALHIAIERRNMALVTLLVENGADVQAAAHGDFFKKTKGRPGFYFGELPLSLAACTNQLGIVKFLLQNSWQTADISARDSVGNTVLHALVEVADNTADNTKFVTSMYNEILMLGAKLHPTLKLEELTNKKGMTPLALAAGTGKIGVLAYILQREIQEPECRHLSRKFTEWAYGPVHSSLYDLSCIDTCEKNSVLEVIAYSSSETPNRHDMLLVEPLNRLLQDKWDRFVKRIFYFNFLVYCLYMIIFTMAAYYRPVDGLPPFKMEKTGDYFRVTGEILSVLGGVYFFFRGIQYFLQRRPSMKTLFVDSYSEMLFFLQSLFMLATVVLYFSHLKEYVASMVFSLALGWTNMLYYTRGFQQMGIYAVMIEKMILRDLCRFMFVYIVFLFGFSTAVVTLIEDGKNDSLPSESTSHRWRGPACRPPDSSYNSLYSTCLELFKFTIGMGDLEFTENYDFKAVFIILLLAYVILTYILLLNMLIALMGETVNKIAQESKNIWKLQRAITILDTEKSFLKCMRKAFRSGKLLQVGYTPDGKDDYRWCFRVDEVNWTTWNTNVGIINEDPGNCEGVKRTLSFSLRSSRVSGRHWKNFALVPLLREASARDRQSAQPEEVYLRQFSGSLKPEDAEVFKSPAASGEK
#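 TRPV1-expressing cells were cultured overnight at 35.5C and loaded with Fluo-8 calcium dye for 40 to 90 min at room temperature. After a 10 s baseline, compound was added and calcium influx was read kinetically for 3 min (ex 480/em 520 nm).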
# Menin MLL FP FL: menin-MLL binding inhibition, fluorescein peptide | FP activity change, % at 61.4 µM | Fluorescence polarization, fluorescein-MLL peptide displacement from menin | 290,000 tested, under 10 active; inconclusive = falling polarisation curve, or a change in total fluorescence; inactive = total fluorescence flat and polarisation flat or rising; no compound was filed as active; the % refers to the polarisation; negative = inhibition;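 note: % of control where 0% means no effect; inhibitors lower the polarisation; unlabelled MLL peptide was the positive control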
# Sfp PPTase inh: inhibitors of Bacillus subtilis Sfp phosphopantetheinyl transferase | Q9F4F7 | Biochemical Sfp PPTase activity, qHTS | Potency, µM, for the others: max response, negative = inhibition, hits mostly inhibitors | hit rate 3.5% among 310,000; active = well fitted inhibition curve with a large enough effect; inconclusive = small, poorly fitted or top-dose-only effect, or another doubt; inactive = no such curve, though single readings can be large or run the other way;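 note: the enzyme is Sfp with the accession as filed and its product quenches rhodamine fluorescence; potency is the fitted concentration of half-maximal effect; 0% = enzyme reaction without inhibitor and -100% = no enzyme wells; top concentration of the series not given in the record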
#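 After 15 min at room temperature with compound, 15 nM Sfp received 5 uM rhodamine-CoA plus 12.5 uM BHQ-2-ybbR (50 mM Hepes pH 7.6, 10 mM MgCl2). Rate came from the fluorescence difference over 30 min, ex 525/em 598 nm.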
# TRPML1 inh: blocks the human TRPML1 channel; Q9GZU1; TRPML1-inducible cells, Ca2+ dye fluorescence, FDSS; active compounds read low; inhibition of EC80 agonist-evoked calcium signal; activity change, negative = inhibition, % (concentration not given with the values); hit rate 0.02% among 390,000; in the data active means activity change below about -50%; inconclusive means about -30% to -50%; inactive means above about -30%;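 note: stimulus is agonist 54-4 at its EC80 concentration; % is set by controls: 0 for no effect and ±100 for the full control effect; the text of the record puts the active cut at -80%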
#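 TRPML1-DL cells, Tet-induced overnight (~16 h, 37 °C) at 1,500 cells/well, were loaded with Ca8 no-wash dye plus quencher for 45-90 min at room temperature. Compounds were pinned during FDSS kinetic reading; agonist 54-4 at EC80 (4 uM final) then added.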
# Numbers without * were called inactive; ? = inconclusive; / = not tested or not shown; & = joins results of further samples; [ ] = remark or other dose.
SMILES,gsp antagonist,ClpP mod,gsp ag,TRPV1 PAM,Menin MLL FP FL,Sfp PPTase inh,TRPML1 inh
CCOC(=O)CNC(=S)N(Cc1cccs1)C1CCCCC1,-15.4%,-3.4%,-4.6%,-0.1,0.1,0.9%,-8.8
CCc1ccccc1NC(=O)CN(c1ccc(OC)cc1OC)S(=O)(=O)c1ccccc1,?,-0.2%,-28.6%,0.4,-0.8,10.1%,78.1
Cc1c(C(=O)Oc2ccc(F)cc2)sc2ncn(Cc3cccc(F)c3)c(=O)c12,7.6%,99.0%,-13.8%,-9.3,3.7,7.5%,-9.5
Cc1ccccc1C=Nc1ccccc1C(N)=O,4.8%,28.2µM*,-30.6%[inhibitor],5.3,2.6,-1.9%,-10.1
NNc1nc(-c2ccccc2)c2ccccc2n1,1.6%,1.1%,-4.0%[15.4 µM],3.7,-3.3,-26.6%,-2.5
Cc1cc(C)cc(NC(=O)Nc2ccc(NC(=O)c3ccccc3O)cc2)c1,1.3%,/,2.2%,-3.9,2.5,3.6%,29.8
COCc1nc2ccccc2n1Cc1ccccc1,-10.3%,-0.2%,-8.6%,-10.1,3.5,-0.1%,5.5
O=C(O)CCC(=O)Nc1nc2ccccc2s1,5.4%,1.2%,28.9%,-0.1,-1.8,24.3%,-16.0
Cc1ccc(NC(=O)COC(=O)CSCC(=O)Nc2cc(C)on2)c(C)c1,5.6%,0.8%,-5.2%,5.2,/,/,4.0
O=C(COC(=O)c1ccccc1Oc1ccccc1)NCc1ccco1,-18.6%,3.3%,-16.4%,-8.6,4.0,?,6.2
COc1cccc(/C=C/C(=O)OCC(=O)Nc2ccc(Cl)c(S(=O)(=O)N(C)C)c2)c1,-4.9%,/,-8.6%[15.4 µM],16.1,5.6,?,16.9
O=C(Cn1nc(-c2cccc(Cl)c2)ccc1=O)Nc1ccc(C(=O)NC2CC2)cc1,8.1%,/,-8.8%[15.4 µM],5.7,-0.4,-5.7%,1.2
Cc1c(/C=N/NC(=O)c2ccc(O)cc2)c2ccccn2c1C(=O)c1ccc(F)cc1,?,-0.3%,-3.5%,-2.5,8.7,20.2%,11.8
Clc1cccc(-c2nn3c(-c4cccc(Cl)c4)nnc3s2)c1,/,/,/,3.1,-0.1,-5.2%,/
CC(C)OC(=O)/C(C#N)=C\c1cccnc1,5.6%,2.9%,-33.7%[inhibitor],0.7,-0.6,-3.3%,-12.4
Cc1cc(C)cc(NS(=O)(=O)c2ccc3[nH]c(=O)ccc3c2)c1,4.6%,1.2%,?,-10.5,0.1,15.1%,-1.4
N#C/C(=C\c1ccccc1C(=O)O)c1nc2ccccc2[nH]1,-14.4%,0.5%,-3.9%[15.4 µM],-8.8,0.8,16.7%,8.1
COc1cc(CNCc2ccc(Br)cc2)cc(OC)c1,2.2%,-0.5%,20.3%,20.4,-12.6,-7.6%,47.4
CC1Oc2ccccc2OC1(O)c1ccccn1 (stereo not given),7.9%,-11.9%,-12.9%,-0.7,1.4,-8.5%,11.0
CCSc1ccc(NC(=O)c2cccnc2)cc1,-0.3%,0.5%,-47.2%[inhibitor],-28.3,2.6,-1.9%,12.6
COc1ccc(NC(=O)c2cncc(Br)c2)cc1S(N)(=O)=O,-10.1%,0.5%,-4.2%[15.4 µM],0.3,-1.1,14.4%,7.2
CNC(=O)N(O)C1N(/N=C/c2cc(Br)ccc2O)C(=S)SC1(C)C (stereo not given),-16.7%,-0.8%,13.6%,0.7,26.0,79.4µM*,6.0
Cc1ccccc1NC(=O)c1cccc(Cn2cc(Br)c([N+](=O)[O-])n2)c1,-23.6%,-0.2%,7.0%,-16.6,4.1,0.8%,13.8
CCOc1ccccc1Oc1c(C)oc2c(CN3CCN(CCO)CC3)c(O)ccc2c1=O,-0.6%,-1.0%,5.5%,-0.7,0.8,-4.9%,-6.7
COc1ccc(C(=O)N(C)Cc2ccc(C)o2)cc1OC1CCN(C(C)C)CC1,3.4%,0.8%,14.8%,-1.1,/,1.2%,66.3
Cc1ccc(C2CC(c3ccc(NS(C)(=O)=O)cc3)=NN2C(=O)c2ccco2)cc1 (stereo not given),?,0.7%,7.4%[15.4 µM],-3.5,9.2,5.9%,-19.3
Cc1ccc(NC(=S)NC(=O)C2CCCCC2)c(Br)c1,-18.2%,/,-40.7%[inhibitor],/,/,/,-3.9
Cn1nnc(NC(=O)/C=C/c2ccco2)n1,?,/,9.3%[15.4 µM],-16.0,-2.0,-20.6%,-13.4
O=C(NCc1ccccn1)c1ccc(/C=N/O)nc1,0.5%,-4.7%,12.4%,6.7,-1.2,50.1µM*,13.2
CC(=O)Nc1cc2c3ccccc3n(C)c2cc1[N+](=O)[O-],3.8%,/,-8.9%,/,/,/,-16.2
O=C(c1cccc([N+](=O)[O-])c1)N1CCN(S(=O)(=O)/C=C/c2ccccc2)CC1,-0.4%,-0.2%,-2.8%,-6.0,/,/,30.9
O=C1CC(SC(=Nc2ccccc2)Nc2ccccc2)C(=O)N1c1ccc(Cl)c(Cl)c1 (stereo not given),-27.9%,?,5.3%,-5.5,2.2,21.9%,-4.8
OCCN(/C=N/c1nc(-c2ccc(Br)cc2)cs1)CCO,2.1%,-4.2%,-15.4%,-30.3,-0.8,-0.2%,7.1
Cn1cccc1/C=N/N1CCN(c2ccccn2)CC1,-17.0%,-1.3%,-9.2%,-1.3,1.6,-82.8%,-25.8
COc1ccc(C)cc1S(=O)(=O)N(C)CC(=O)N1CCN(C)CC1,-2.2%,1.0%,-23.5%,-3.3,3.3,2.9%,-14.2
CCC1CCCCN1C(=S)Nc1cccc(S(=O)(=O)N(C)C)c1 (stereo not given),-7.9%,/,8.9%[15.4 µM],-0.9,0.4,13.1%,1.6
COc1ccc2c(c1)[nH]c1c(Cl)ncnc12,-6.0%,/,20.0%,-12.0,-1.1,-8.6%,25.0
FC(F)(F)COc1nc(N/N=C/c2cccnc2)nc(N2CCCCC2c2ccccn2)n1 (stereo not given),-9.5%,-0.2%,8.5%[15.4 µM],-14.4,-4.0,23.7%,0.9
Cc1ccc(Nc2nc(-c3sc(NC(=O)c4ccc([N+](=O)[O-])cc4)nc3C)cs2)cc1,/,/,/,-5.5,0.0,5.9%,/
CCc1ccc(NC(=O)CN(c2ccc3c(c2)OCO3)S(=O)(=O)c2c(C)noc2C)cc1,-24.5%,1.3%,-3.0%,/,0.5,11.6%,3.9
CCC1=C2CC[C@H]3C(=O)N(CC(=O)OC)C(=O)[C@H]3[C@H]2[C@@]2(C)C(=NCC(=O)OC)OC(=O)N2C1=O,2.9%,-0.2%,11.3%,?,-0.2&-4.3,19.3%&3.0%,11.3
FC(F)(F)c1cccc(NC(=S)NCc2ccccn2)c1,-2.6%,-0.6%,-33.0%[inhibitor],4.2,4.1,-7.1%,13.5
CCCC(=O)Nn1cnc2c(c1=O)C1(CCCCC1)Cc1ccccc1-2,?,0.8%,-38.7%[inhibitor],-7.3,2.4,-2.4%,11.2
S=C(c1ccc(Br)cc1)N1CCN(Cc2ccccc2)CC1,1.3%,1.2%,-4.1%,-10.1,0.3,11.2µM*,-9.4
O=C(CCSc1ccc(Cl)cc1)N1CCCCCC1,-1.8%,-0.2%,-25.4%,-3.6,-0.8,22.7%,2.9
CC1CCCC(C)N1C(=O)COC(=O)CNC(=O)c1sc2ccccc2c1Cl (stereo not given),-13.7%,-1.0%,5.1%,-20.1,/,/,-3.1
Cc1cc2c(=O)n(CC(=O)NCC(=O)N3CCN(Cc4ccccc4)CC3)cnc2s1,-3.9%[15.4 µM],1.0%,1.4%,-1.4,2.0,13.6%,-19.6
CCn1c(C(=O)OC)cc2c1ccn2-c1ccc(F)cc1,?,?,-27.5%,-32.0,0.6,-10.5%,20.0
OC(COc1ccccc1)CN1CCC(Cc2ccccc2)CC1 (stereo not given),6.9%,0.6%,0.0%[15.4 µM],24.4,-6.9,17.2%,-1.2
COc1ccc(CC(=O)NCc2ccc(Cl)cc2)cc1S(=O)(=O)N1CCOCC1,7.9%,3.4%,-4.0%,-0.3,/,/,-24.6
O=C(O)CNC(=S)N(Cc1ccccc1Cl)C1CCCCC1,-0.7%,/,1.8%,0.3,-1.2,22.3%,-4.1
CN(C)S(=O)(=O)c1cc(NC(=O)CN2CCCc3ccccc32)ccc1Cl,?,?,-9.3%[15.4 µM],0.2,6.6,-4.2%,5.0
O=C(/C=C/c1ccco1)Nc1ccc2nn(-c3ccccc3)nc2c1,-10.2%,1.5%,21.0%,-3.9,3.3,?,11.5
CCOc1ccc2nc(NCCCNS(=O)(=O)c3ccc(F)cc3)c(C#N)cc2c1,11.0%,-8.3%,0.9%,/,/,/,-11.1
Cc1ccsc1C(=O)Nc1ccc(C(=O)O)cc1,0.0%,0.5%,6.0%,-1.3,2.3,13.6%,8.3
O=C(NC(Cc1ccccc1)C(=O)O)/C(=C\c1ccccc1)NC(=O)c1ccco1 (stereo not given),/,/,-7.1%[15.4 µM],-1.8,0.3,16.2%,9.1
O=C(NC(=O)c1ccccc1O)c1ccc(C(F)(F)F)cc1,?,/,?,4.9,1.1,14.7%,-11.0
COc1ccc(NC(=O)CN(C)C(=O)c2ccc3ccccc3c2)cc1,-4.2%,0.7%,5.7%[15.4 µM],-6.6,/,/,-4.4
CCN(C(=O)c1cc2c(=O)[nH]c3ccc(C)cc3c2s1)c1ccc(F)cc1,-16.8%,5.0%,?,15.5,6.6,11.3%,8.7
CCOc1ccc(N(Cc2ccc(OC)cc2)C(=O)c2ccco2)cc1,-6.9%,/,-3.0%[15.4 µM],-9.3,-0.7,-8.7%,12.8
COc1ccc(NC(=O)NNC(=O)c2cc(C3CC3)nc3ccccc23)c(OC)c1,?,-1.0%,-14.0%[15.4 µM],22.3,-2.3,7.8%,-0.5
O=C(CCNC(=O)c1ccccc1Cl)NCCc1ccc(C(F)(F)F)cc1,1.7%,/,-9.7%,-1.0,-0.6,5.1%,15.0
COc1ccc(NC(=O)COC(=O)CC2CCCC2)cc1,0.1%,/,7.7%,/,/,/,8.4
